Screening results: PubChem, National Center for Advancing Translational Sciences (NCATS)
VDR inhibitor = inhibitors of human vitamin D receptor. P11473. 400,000 compounds, 0.93% hits. VDR-SRC2-3 peptide fluorescence polarization, 2 h. Potency, µM, for inactives: max response, negative = inhibition, actives largely listed as inhibitors. AID 504847; active = well fitted inhibition curve with a large enough effect; inconclusive = small, poorly fitted or top-dose-only effect, or another doubt; inactive = no such curve, though single readings can be large or run the other way; also: series mostly up to about 120 µM
Target sequence (P11473 whole entry, looked up): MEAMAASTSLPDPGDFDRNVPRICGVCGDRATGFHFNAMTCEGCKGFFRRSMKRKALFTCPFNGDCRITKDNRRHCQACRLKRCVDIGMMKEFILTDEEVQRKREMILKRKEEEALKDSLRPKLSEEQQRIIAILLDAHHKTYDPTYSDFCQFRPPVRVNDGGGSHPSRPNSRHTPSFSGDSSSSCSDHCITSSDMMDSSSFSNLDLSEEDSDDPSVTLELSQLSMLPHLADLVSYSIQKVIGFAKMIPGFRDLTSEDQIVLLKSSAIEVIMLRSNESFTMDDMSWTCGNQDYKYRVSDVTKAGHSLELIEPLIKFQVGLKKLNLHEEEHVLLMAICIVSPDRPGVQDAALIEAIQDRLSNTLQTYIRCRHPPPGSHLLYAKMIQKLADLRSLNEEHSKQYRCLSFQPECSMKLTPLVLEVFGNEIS
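Fluorescence polarization assay measuring small-molecule disruption of VDR binding to the coregulator peptide SRC2-3. Compounds were pin-transferred (23 nl) into the reagent mix and incubated 2 h at room temperature before reading.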
The depositor's hits bear a star; ? = inconclusive; & = joins results of further samples; [ ] = dose if it differs, or a comment. % is scaled to controls: 0 for no effect and ±100 for the full control effect; potency is read from the fitted curve at half-maximal effect.

VDR inhibitor | smiles
11.1% | O=C(COC(=O)c1ccccn1)NC12CC3CC(CC(C3)C1)C2
-9.1% | CN(C)S(=O)(=O)c1cccc(NS(=O)(=O)c2ccc(Cl)s2)c1
12.3% | C/C(Cc1ccccc1)=N\NC(=O)CCCCCC(=O)N/N=C(\C)Cc1ccccc1
-2.4% | COc1ccc(CN(C)C(=O)CCN(c2ccccc2)S(=O)(=O)c2ccc(C)cc2)c(OC)c1
-13.5% | O=C(O)c1ccccc1C(=O)Nc1ccc(S(=O)(=O)Nc2ccc(F)cc2)cc1
9.3% | N=c1c2c(-c3ccccc3)c(-c3ccccc3)n(Cc3ccco3)c2ncn1CCCn1ccnc1
-3.3% | COc1ccc(Cl)cc1N/C(N)=N/c1nc(CSc2ccc(C)cc2)cc(=O)[nH]1
-15.7% | COc1ccc([C@H](OC)[C@@]2(Cc3ccc(O)cc3)N=C(N)N(C)C2=O)cc1
-19.6% | Cn1c(=O)c2sccc2n2c(CCCC(=O)Nc3ccccc3)nnc12
0.4% | Cc1ccc(Cl)cc1N1CCN(C(=O)CCNS(=O)(=O)c2ccc3c(c2)CCN3C(=O)C2CC2)CC1
12.7% | O=C(CSc1nnc(-c2ccncc2)n1-c1ccccc1)Nc1ccc(C(=O)O)cc1
5.4% | Cc1nc2ccc(Cl)cc2nc1C
-0.5% | CN(CC(=O)Nc1c(Cl)cccc1Cl)C(=O)Cc1ccc(S(=O)(=O)N2CCOCC2)s1
-2.3% | CCOC(=O)c1c(C)n(CCOc2ccccc2)c2ccc(O)cc12
? | O=C1C(=NO)CCc2ccccc21
7.9% | C[C@H](NC(=O)[C@@H]1CSC2c3ccccc3C(=O)N21)C(=O)NCc1c(F)cccc1Cl (stereo partly drawn)
-13.2% | CCNc1ccc(S(=O)(=O)NCCN(C)C)cc1[N+](=O)[O-]
-4.1% | Fc1ccccc1NC(=S)N(CCN1CCCCC1)Cc1ccco1
-13.8% | CC1(C)Cc2ccccc2C(/C(=N\Nc2cccc(Cl)c2)C(N)=O)=N1
6.4% | CC(=O)c1cccc(OCc2cc(C(=O)N3C[C@H]4CC[C@H]3C4)no2)c1

Grouped by structure: those above with an aryl thioether with sulfur outside any ring (two)
VDR inhibitor | smiles
-3.3% | COc1ccc(Cl)cc1N/C(N)=N/c1nc(CSc2ccc(C)cc2)cc(=O)[nH]1
12.7% | O=C(CSc1nnc(-c2ccncc2)n1-c1ccccc1)Nc1ccc(C(=O)O)cc1

(further entries)
VDR inhibitor | smiles
-12.7% | O=C(COc1ccccc1)NCC(=O)N/N=C/c1ccc(Cl)cc1
-4.5% | COc1ccc(OC)c(C2Nc3ccccc3NC3=C2C(=O)CC(C)(C)C3)c1 (stereo not drawn)
9.4% | CCCNC(=O)NC(=O)CSc1ncc(C(F)(F)F)cc1Cl
2.3% | Cc1nc(-c2ccc(F)cc2)sc1CCNC(=O)c1ccc(C(C)(C)C)cc1
-9.4% | Nc1c(C(=O)NCC2CCCO2)c2nc3ccccc3nc2n1-c1ccccc1 (stereo not drawn)
-20.1% | NC(=O)CSc1ccc2nnc(-c3ccncc3)n2n1
-7.4% | O=S(=O)(Nc1ccc(F)cc1)N1CCOCC1
-18.1% | O=C(COC(=O)c1c[nH]c(=O)[nH]c1=O)Nc1ccccc1Br
-24.0% | CC(C)C(NC(=O)c1ccco1)C(=O)OCC(=O)Nc1ccc(C(N)=O)cc1 (stereo not drawn)
17.2% | CCc1nnc(NC(=O)c2cccnc2)s1
-16.4% | O=C(Nc1ccc(F)c(F)c1)C1CCCCC1
-8.9% | CCCSc1oc(-c2ccco2)nc1S(=O)(=O)c1ccc(C)cc1
-2.7% | O=C(Nc1ccc(S(=O)(=O)Nc2ccccn2)cc1)c1ccccc1
-16.2% | C/C(=N\NC(=O)c1cc(-c2ccccc2C)nc2ccccc12)c1cccnc1
-7.7% | COC(=O)c1c(C)nc(C)c2c(=O)oc3ccccc3c12
? | CC(=O)O[C@]1(C(C)=O)CC[C@H]2[C@@H]3C=C(Cl)C4=CC(=O)CC[C@]4(C)[C@H]3CC[C@@]21C
-24.8% | Cc1ccc(S(=O)(=O)N/N=C/c2ccccc2F)cc1[N+](=O)[O-]
-12.9% | COC(CN(C(=O)CCl)C(C(=O)NC1CCCC(C)C1C)c1ccc(C)cc1)OC (stereo not drawn)
-3.3% | CC(C)(C)NC(=O)CSC(=Nc1ccc(F)cc1)NC#N
-9.9% | CC(NC(=O)CCN1C(=O)c2ccccc2S1(=O)=O)c1ccccc1 (stereo not drawn)
11.4% | CN(C)c1ccc(C(CNC(=O)c2c(F)cccc2Cl)N2CCOCC2)cc1 (stereo not drawn)
-2.0% | Cc1cc(C(=O)N/N=C/c2ccc(Br)o2)n[nH]1
-6.6% | CC(=O)SC1CC(=O)N(c2ccc(C(C)(C)C)cc2)C1=O (stereo not drawn)
-4.9% | CCCn1nc(CC(=O)OCC)c2ccccc2c1=O
18.5% | COc1ccc(CCn2c(=N)c(C(=O)NC3CCCC3)cc3c(=O)n4ccccc4nc32)cc1OC
-3.0% | CC1(C)CC(=O)N(c2cccc(Cl)c2)C(=O)C1
-4.2% | O=C(O)/C=C/C(=O)Nc1ccc(S(=O)(=O)N2CCCC2)cc1
-7.8% | Cc1ccc(NC(=S)NC2CC3CCC(C2)N3Cc2ccco2)cc1C (stereo not drawn)
31.1%[activator] | NC(=O)C1CCN(CCC(=O)Nc2ccc(Br)cc2)CC1
-9.3% | CS(=O)(=O)c1ccc(NC(=O)CCN2C(=O)C3CCCCC3C2=O)cc1 (stereo not drawn)
-4.6% | CN(CC(=O)Nc1ccc(F)cc1)C(=O)Cn1c(=O)oc2ccccc21
-5.9% | C=CCOC(=O)C1=C(C)NC(C)=C(C(=O)OCC=C)C1c1ccc(C)o1
3.4% | COC(=O)CCc1c(C)c(C(=O)c2ccco2)c2ccccn12
-15.3% | Cn1c(=O)c(Nc2ccc(O)cc2)c2c3c(cccc31)C(=O)c1ccccc1-2
-13.6% | CC1c2nc3ccccc3n2C(CC(=O)NC2CC2)C(=O)N1Cc1ccccc1 (stereo not drawn)
2.4% | COC(=O)c1ccc(N2CCOCC2)c(NC(=O)c2ccc3c(c2)OCCO3)c1
4.2% | CCOc1ccccc1NC(=O)c1c(NC(=O)c2ccncc2)sc2c1CCC(C(C)(C)C)C2 (stereo not drawn)
6.8% | O=C(CN1C(=O)c2ccccc2S1(=O)=O)N1CCN(c2cccc(Cl)c2)CC1
-0.7% | CC12CC3OC3CC1CCC1C2CCC2(C)C1CCC21OCCO1 (stereo not drawn)
0.1% | CC(C)Oc1ccc(CN2CCCC(CO)(Cc3ccc(F)cc3)C2)cc1 (stereo not drawn)
-2.7% | CCC(=O)N1CCC(C(N)=O)(N2CCCCC2)CC1
-9.0% | C=CCOC(=O)C1=C[C@H](c2csc3ccccc23)C[C@H](OCc2ccc(CO)cc2)O1
-10.1% | CCC1(C)NC(=O)N(CC(=O)Nc2cc(C)on2)C1=O (stereo not drawn)
-8.5% | C/C(=N\OC(=O)c1ccc(Cl)cc1)c1sc(-c2ccccc2)nc1C
-20.5% | O=C(CCCOC(=O)c1ccc(O)cc1O)c1ccc(Br)cc1
13.5% | CCCCOc1ccc(C(=O)NCC(=O)N2CC=C(c3ccccc3)CC2)cc1
-12.6% | COc1ccc(CNC(=O)c2cc3cc4ccc(C)cc4nc3o2)cc1
-3.1% | COc1ccc(Cl)cc1CSc1n[nH]c(C)n1
-0.8% | CC1(C)CC(=O)c2cnc(NC3CC3)nc2C1
-8.7% | O=C(CC1CCCCC1)NCc1ccc(Cl)cc1
-4.6% | C/C=C/C=N/NC(=O)CN(c1ccc(Br)cc1)S(=O)(=O)c1ccccc1
13.2% | O=C(NCc1cccs1)c1ccc(Cn2c(SCc3ccccc3)nc3cccnc32)cc1
-8.7% | CC(C)(C)NC(=O)CN(C(=O)CSc1nnc(COc2ccccc2)o1)c1cccc(F)c1
-1.3% | CCOc1ccc(Oc2cc(C)nc(SC)n2)nn1
3.4% | Cc1c(C(=O)NCc2ccc3c(c2)OCO3)sc2nc(-c3ccccc3)cn12
4.8% | COc1ccccc1N1CCN(CCCCCCOc2ccc(F)cc2)CC1
-2.3% | CC(=O)OC(C(=O)NCc1ccco1)c1cccnc1 (stereo not drawn)
-13.4% | Cc1noc(C)c1COc1ccc(C(=O)Nc2ccccc2)cc1
-8.1% | COC(=O)c1ccc(NC(=O)Nc2ccccc2F)cc1
-3.3% | Cc1nc2ccccc2c(=O)n1NC(=O)c1ccc(Cl)cc1

Going on with the list:
VDR inhibitor | smiles
-6.4% | O=C(CC12CC3CC(CC(C3)C1)C2)NC(=S)Nc1ccc(CN2CCOCC2)cc1
-9.9% | COC(=O)c1ccc(CSc2nnc3sc4ccccc4n23)o1
-11.6% | COc1ccc(Cn2cnc3c([N+](=O)[O-])c(C)c(C)cc32)cc1
-1.6%&6.9% | CCC(=O)N1CCc2cc(OC)c(OC)cc2C1COc1ccccc1OC (stereo not drawn)
1.8% | Cc1ccccc1OCc1nc2ccccc2c(=O)n1N
7.0% | CC(C)CC(=O)Nc1nc2ccc(S(=O)(=O)N3CCOCC3)cc2s1
0.6% | Cc1ccc(C(=O)N/N=C\c2ccc3c(c2)OCO3)cn1
2.8% | COC(=O)c1scc(-c2ccc(C)cc2)c1S(=O)(=O)N1CCN(c2ccc(F)cc2)CC1
-5.3% | Cc1ccc(C(=O)N2CCC(C(=O)NC3CCCC3)CC2)cc1
-18.8% | COc1cc(Cl)c(C)cc1NC(=O)Cn1ncc2c(=O)oc3ccccc3c21
? | COc1ccc(CN2C(=O)c3cccnc3C2=O)cc1S(=O)(=O)N1CCOc2ccc(C)cc21
5.5% | CC(C)c1ccc(NC(=O)c2ccc(NC3=NC4CS(=O)(=O)CC4S3)cc2)cc1 (stereo not drawn)
4.5% | CCN(CC)C(=O)CSc1nc(O)cc(=O)n1-c1ccccc1OC
? | CCCn1c(=O)c2ccccc2n2c(SCC(=O)/C(C#N)=C(\C)N)nnc12
-7.6% | CCOC(=O)N1CCN(C(=O)C(NS(=O)(=O)c2cccc3nsnc23)c2ccccc2)CC1 (stereo not drawn)
11.8% | Cc1ccsc1CN(C)C(=O)CCc1nnc(COc2ccccc2)o1
-17.0% | Cc1ncc(CO)c2c1Oc1nc(-c3ccccc3)nc(SCC(=O)N3CCOCC3)c1C2
-16.4% | OCc1ccc(N=Nc2ccccc2)cc1
-11.3% | COc1ccc(C(=O)Nc2ccc(O)cc2C(=O)O)cc1
0.0% | CCn1c(-c2ccc(S(=O)(=O)N3CCOCC3)cc2)csc1=Nc1ccc(C)c(Cl)c1

Reprinted at random: 2 compounds from above, in no set order.
VDR inhibitor | smiles
-11.3% | COc1ccc(C(=O)Nc2ccc(O)cc2C(=O)O)cc1
1.8% | Cc1ccccc1OCc1nc2ccccc2c(=O)n1N

(continued)
VDR inhibitor | smiles
3.4% | COc1ccccc1NS(=O)(=O)c1cn(C)cn1
-0.7% | COc1ccc(C(=O)NCc2cccnc2)cc1S(=O)(=O)N1CCCc2ccccc21
-11.3% | O=C(C1Cc2ccccc2CN1S(=O)(=O)c1ccc(F)cc1)N1CCCCCC1 (stereo not drawn)
-20.2% | COc1ccc2c(-c3ccccc3)cc3nnnn3c2c1
28.3% | NC(=O)C(c1ccccn1)c1ncc(C(F)(F)F)cc1Cl (stereo not drawn)
-0.6% | COc1ccc(-c2noc(N3CCC(C(=O)Nc4ccc(F)cc4)CC3)n2)cc1
8.3% | Fc1ccc(/C=N/n2c(C3CCCCC3)n[nH]c2=S)cc1
24.5% | COc1ccccc1C1C2=C(CCCC2=O)N(CC(=O)O)C2=C1C(=O)CCC2
-12.2% | O=C(N1CCN(CCO)CC1)N1c2ccccc2C=Cc2ccccc21
-14.9% | O=C(N/C=N/OCc1ccc(Cl)cc1Cl)NOCc1c(Cl)cccc1Cl
15.2% | CCOC(=O)CSC1=C(C#N)C(c2ccccc2OCC)C(C#N)C(=O)N1 (stereo not drawn)
-4.9% | COc1ccc(NC(=O)CCc2nc3ccccc3c(=O)[nH]2)cc1S(=O)(=O)N1CCCCC1
-0.1% | O=C(O)CCCN1C(=O)/C(=C/C=C/c2ccco2)SC1=S
-12.2% | CCS(=O)(=O)N1CCC(C(=O)N2CCN(Cc3ccccc3)CC2)CC1
0.9% | Cc1ccc(C)c(NC(=O)CN2C(=O)NC(CCc3ccccc3)C2=O)c1 (stereo not drawn)
79.4µM* | Oc1c(C=Nc2cccc3nsnc23)ccc2ccccc12
-23.7% | O=C1C2C3CCC(O3)C2C(=O)N1c1cccc(O)c1 (stereo not drawn)
-12.6% | Cc1nn(C)cc1/C=C1\CCC/C(=C\c2cn(C)nc2C)C1=O
-11.7% | Nc1nc(SCC(=O)Nc2ncc(Cl)cc2Cl)n[nH]1
3.4% | COc1cc2c(cc1OC)C(=O)N1[C@H]3c4ccccc4OC[C@@H]3[C@H](c3ccccc3)[C@]1(C)C(=O)N2
-13.5% | Cc1ccnc(NS(=O)(=O)c2ccc(NC(=O)c3oc4ccccc4c3C)cc2)n1
8.3% | CC1CCN(C(=O)c2ccc3c(c2)NC(=O)CN3)CC1
-4.3% | COC(=O)C1=NN(C(=O)c2ccc(Br)cc2)C(O)(C(C)(C)C)C1 (stereo not drawn)
-7.2% | Cc1cc(=O)[nH]c2[nH][nH]c(=O)c12
5.4% | O=C(Nc1ccncc1)C1CCN(S(=O)(=O)c2ccc(Cl)c(C(F)(F)F)c2)CC1
6.8% | CC[C@]12C(=O)N(C)C[C@H]([C@@H]3C(=O)N(C)C(=O)[C@@H]31)N2C(=O)c1ccc(Br)cc1
-0.3% | CCN(C(=S)Nc1ccc(C(C)=O)cc1)C1CCCCC1

Some of the entries above, set out differently.
molecule | VDR inhibitor
O=C(Nc1ccncc1)C1CCN(S(=O)(=O)c2ccc(Cl)c(C(F)(F)F)c2)CC1 | 5.4%
CC1CCN(C(=O)c2ccc3c(c2)NC(=O)CN3)CC1 | 8.3%
Cc1cc(=O)[nH]c2[nH][nH]c(=O)c12 | -7.2%

The list is partial, so the mix of outcomes need not match the whole.
